Assay outcomes as filed in PubChem.
D2 potentiator = human D2 receptor positive allosteric modulation | 360,000 tested, 0.23% active | AID 624464 | DiscoveRx D2 beta-arrestin cells, luminescence, 90 min; 100% = 57 uM dopamine signal | potentiation, % (concentration not given with the values); active = potentiation of 50% or more; inconclusive = 30% to 50%; inactive = 30% or less;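 note: compound concentration not given in the record; tested on top of an EC20 dose of dopamine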
Target sequence (P14416 whole entry, looked up): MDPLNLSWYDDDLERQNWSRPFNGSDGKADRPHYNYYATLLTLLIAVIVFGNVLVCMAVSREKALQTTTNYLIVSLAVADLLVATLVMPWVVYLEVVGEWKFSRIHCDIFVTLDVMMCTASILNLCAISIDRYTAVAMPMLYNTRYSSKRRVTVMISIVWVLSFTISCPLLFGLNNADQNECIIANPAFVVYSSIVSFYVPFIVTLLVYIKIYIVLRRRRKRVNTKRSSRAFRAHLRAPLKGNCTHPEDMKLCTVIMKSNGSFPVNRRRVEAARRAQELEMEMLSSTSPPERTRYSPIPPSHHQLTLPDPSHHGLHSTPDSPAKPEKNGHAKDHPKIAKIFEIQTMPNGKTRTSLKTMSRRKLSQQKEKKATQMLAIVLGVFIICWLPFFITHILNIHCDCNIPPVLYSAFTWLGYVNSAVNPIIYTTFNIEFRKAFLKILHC
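PathHunter D2 cells, attached overnight at 37 deg C, received compound in DMSO plus dopamine at EC20 (50 nM final) for 90 min at 37 deg C. Beta-arrestin recruitment was read as luminescence after 1 h with detection reagent at ambient temperature.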
Six1-Eya2 inh = Six1/Eya2 interaction inhibition | AlphaScreen GST-Six1/His-Eya2 binding, biochemical; stronger effect = lower value; control for the full effect not named in the record | activity change, % (test concentration not listed) | 360,000 tested, 0.56% active; in the data active = activity change below about -65%; inconclusive = about -30% to -65%; inactive = above about -30%; note: % is set by controls: 0 for no effect and ±100 for the full control effect; compound concentration not given in the record
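Compounds are tested against tagged Six1 and Eya2 proteins bridged by glutathione donor and nickel acceptor beads; after a one-hour incubation at 37 °C without light, AlphaScreen emission is recorded.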
TRPML1 agonist = human mucolipin-1 channel agonism. 410,000 tested, 0.12% active. TRPML1-expressing cells, Ca2+ dye fluorescence, FDSS; host cell line not named in the record; reference of the full effect not given here. activation, % (concentration not given with the values). AID 624414; in the data active = activation above about 50%; inconclusive = about 30% to 50%; inactive = below about 30%; note: 0% is about no effect; the text of the record puts the active cut at 80%
Target sequence (Q9GZU1 whole entry, looked up): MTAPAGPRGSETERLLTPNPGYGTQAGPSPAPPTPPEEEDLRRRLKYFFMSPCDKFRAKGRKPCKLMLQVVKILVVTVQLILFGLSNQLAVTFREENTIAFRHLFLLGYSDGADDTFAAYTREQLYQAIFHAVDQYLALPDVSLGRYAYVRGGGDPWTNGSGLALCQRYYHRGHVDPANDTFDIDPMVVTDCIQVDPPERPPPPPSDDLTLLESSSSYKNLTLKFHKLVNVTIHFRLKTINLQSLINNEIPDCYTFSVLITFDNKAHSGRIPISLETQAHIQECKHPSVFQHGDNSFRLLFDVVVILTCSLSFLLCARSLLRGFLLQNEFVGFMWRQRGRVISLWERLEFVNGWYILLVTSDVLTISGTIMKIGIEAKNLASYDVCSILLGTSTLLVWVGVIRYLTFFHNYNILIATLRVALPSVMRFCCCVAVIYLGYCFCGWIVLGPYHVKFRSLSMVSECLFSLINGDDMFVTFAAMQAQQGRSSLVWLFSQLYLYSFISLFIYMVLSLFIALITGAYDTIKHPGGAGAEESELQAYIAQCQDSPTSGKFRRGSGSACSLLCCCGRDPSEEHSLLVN
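Tet-induced TRPML1-DL cells, 1,500 per well, cultured overnight, were loaded with a no-wash Ca2+ dye for 45–90 min. Calcium fluorescence was recorded on the FDSS for 110 s after compound addition, before the EC80 agonist (4 uM 54-4) was added.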
TRPML1 inh = human mucolipin-1 channel inhibition; activity change, negative = inhibition, % (test concentration not listed); Q9GZU1; TRPML1-inducible cells, Ca2+ dye fluorescence, FDSS; stronger effect = lower value; inhibition of EC80 agonist-evoked calcium signal; 390,000 tested, 0.02% active; in the data active means activity change below about -50%; inconclusive means about -30% to -50%; inactive means above about -30%;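 note: stimulus is agonist 54-4 at its EC80 concentration; % is set by controls: 0 for no effect and ±100 for the full control effect; compound concentration not given in the record; the text of the record puts the active cut at -80%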
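TRPML1-DL cells, Tet-induced overnight (~16 h, 37 °C) at 1,500 cells/well, were loaded with Ca8 no-wash dye plus quencher for 45-90 min at room temperature. Compounds were pinned during FDSS kinetic reading; agonist 54-4 at EC80 (4 uM final) then added.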
CtBP-E1A inh = blocks the CtBP interaction with E1A | 340,000 tested, 0.49% active | AlphaScreen GST-E1A/His-CtBP binding, 1536-well; stronger effect = lower value; control for the full effect not named in the record | activity change, % (no concentration beside the values) | AID 651724; in the data active means activity change below about -65%; inconclusive means about -30% to -65%; inactive means above about -30%; note: % is set by controls: 0 for no effect and ±100 for the full control effect; compound concentration not given in the record
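AlphaScreen with 125 nM GST-E1A and 125 nM His-CtBP (5X stocks) in Tris pH 8.0, 300 mM NaCl, BSA, Tween 20, TCEP. Compounds preincubated 2 h at 37 deg C, then glutathione donor/nickel acceptor beads added for 1 h at 37 deg C in dark.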
TRPV1 PAM = enhances activation of the human vanilloid receptor TRPV1 | TRPV1-expressing cells, Fluo-8 calcium influx, capsaicin EC20 potentiation; host cell line not named in the record; control for the full effect not named in the record | Q8NER1 | 320,000 tested, 0.02% active | potentiation, % at 8.33 µM | AID 540277; active means potentiation above 80%; inconclusive means 30% to 80%; inactive means below 30%; note: 0% is about no effect
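Fluo-8 calcium influx in TRPV1-expressing cells, kinetic read (ex 480/em 520 nm). Compound added and read 3 min for agonist activity, followed by capsaicin at EC20 final and 2 min further read for enhancement.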
Starred values were filed as active, the others as inactive; ? = inconclusive; . = no result given.

Every second line gives: CtBP-E1A inh, Six1-Eya2 inh, D2 potentiator, TRPML1 agonist, TRPV1 PAM, TRPML1 inh
FC(F)(F)c1cc(-c2ccco2)nc(N2CCOCC2)n1
    12, 17, -2, 2.5, 2, -15
O=C(Cn1cnc2c(nnn2Cc2ccccc2F)c1=O)NCc1ccco1
    1, -2, -10, -0.6, 1, 33
COc1ccc(NC(=O)CN2CCN(C(=O)c3ccco3)CC2)c(OC)c1
    6, 5, 4, -0.3, -23, 0
CC/C(=N\NC(=O)Cc1ccc(Br)cc1)c1cccs1
    3, -1, -13, -0.4, -7, -10
O=C(c1cc2ccccc2o1)N1CCN(Cc2ccc3c(c2)OCO3)CC1
    -19, -7, -33, 2.0, -10, 17
C#CCOCCOCCOCCNc1nc(N2CCN(C(=O)Cn3cc(CCCCN)nn3)CC2)nc(N2CCN(C(=O)[C@H]([C@@H](C)CC)n3cc(CCCCN)nn3)CC2)n1
    6, 1, -36, -1.0, -8, -1
NC(=O)C1CCN(C(=O)/C(=C/c2ccccc2)NC(=O)c2ccccc2)CC1
    4, 0, 4, 0.1, 2, 7
CCN1C(=O)CC(C(=O)NC)SC1=Nc1cc(Cl)c(O)c(Cl)c1 (stereo not given)
    0, -2, -17, 2.1, ., -6
Cc1ccc(/C=C/C(=O)OCC(=O)N(CC(C)C)c2c(N)n(Cc3ccccc3)c(=O)[nH]c2=O)o1
    7, 0, 0, 0.7, -3, -7
Cn1c(N2CCCC2)nc2c1c(=O)n(Cc1ccc(F)cc1)c(=O)n2C
    -15, -14, -9, 0.6, -20, 50
O=C(O)c1ccc(Nc2nc(-c3cccnc3)cs2)cc1
    -13, -15, -5, -0.7, 5, 3
CSc1ccc(/C=N/NC(=O)CN2CCN(Cc3ccccc3)CC2)cc1
    -5, 19, -2, -0.3, -2, 9
Cc1ccc(NC(=O)CN2CCCC2c2cccs2)cc1S(=O)(=O)N1CCCCC1 (stereo not given)
    -10, -8, -4, 2.4, 4, 81
CCC(C)NC(=O)c1ccccc1NC(=O)C(C)N(c1ccccc1)S(C)(=O)=O (stereo not given)
    -1, -5, 3, 0.7, 2, 1
CCOC(=O)c1ccn(S(=O)(=O)c2ccc(C)cc2)c1-c1ccccc1
    12, 4, 1, 1.5, ., .
O=C(CN1CCC(Cc2ccccc2)CC1)NCCc1ccc(F)cc1
    -2, 2, -10, -0.1, 13, -11
CCOc1ccc(-c2cc(N)n(S(=O)(=O)c3ccc(OC)cc3)n2)cc1
    -2, -6, -1, -0.3, -2, 3
N#CC1(Cc2ccccc2)c2ccccc2C=CN1C(=O)c1ccccc1 (stereo not given)
    1, -5, -6, 2.8, 6, 37
Cc1cccc(N2CCN(S(=O)(=O)c3ccc4c(c3)CCN4C(=O)CCC(=O)O)CC2C)c1 (stereo not given)
    2, -5, -4, -0.5, 5, 1
Cc1c(NC(=O)c2c(N)sc3c2CCCC3)c(=O)n(-c2ccccc2)n1C
    -3, -6, 1, -0.7, -9, 8
C#CC(=O)CC1(CN(Cc2ccccc2)C(=O)OC(C)(C)C)CCCCC1
    4, -1, 0, -0.3, ., 29
COc1ccc(CN(C(=O)/C=C/C(=O)c2ccc(OC)cc2O)C(C(=O)NC2CCCCC2)c2ccncc2)cc1 (stereo not given)
    -3, -17, -2, 1.4, -3, -8
C/C(=N/NC(=O)C1CC1(c1ccccc1)c1ccccc1)c1ccco1 (stereo not given)
    11, 0, 0, -0.3, 2, 7
CCC(c1nnnn1CCOC)N1CCN(Cc2ccccc2)CC1 (stereo not given)
    1, 12, -8, 0.2, 0, -14
COc1ccc(-c2nc(CS(=O)(=O)CC(=O)NCCCN3CCOCC3)c(C)o2)cc1
    7, -1, -11, -0.8, 13, 5
COc1ccc(NC(=O)CSCc2ccc([N+](=O)[O-])cc2)cc1OC
    -2, 0, -7, -0.4, -14, -6
COc1ccc(S(=O)(=O)N2CCCC(C(=O)NCC3CCCO3)C2)cc1OC (stereo not given)
    0, 2, -7, -1.2, -3, 2
COc1ccc(C(=O)NNC2=C(C(=O)C(F)(F)F)CCC2)cc1
    -1, 3, -10, -0.2, ., 5
CN(CC(=O)N(CCO)Cc1ccccc1)S(=O)(=O)c1ccc2c(c1)c(=O)n(C)c(=O)n2C
    -24, -15, -7, -0.3, ?, 9
Cc1cc(C)cc(N(C(=O)c2csnn2)C(C(=O)NC2CCCC2)c2cccnc2)c1 (stereo not given)
    22, -1, -9, -0.9, 1, 8
CCOC(=O)N1CCC(NC(=O)C2=CCN(S(=O)(=O)c3ccccc3)CC2)CC1
    6, -3, 1, 0.2, 3, -9
CCOc1ccc2ncc(C(=O)c3ccc(OC)cc3)c(N3CCN(CC)CC3)c2c1
    ?, -8, -7, 1.5, 6, 17
CCN(C(=O)CSc1nnc(-c2cccc(Cl)c2)n1N)c1c(N)n(Cc2ccccc2)c(=O)[nH]c1=O
    -10, 3, -1, 0.3, ., 12
COc1cc2c(C(=O)O)c(C)n(-c3ccccc3)c2c2ccccc12
    -14, -13, 2, ., -10, .
Cc1cc(C)n(CCC(=O)N2CCCC(Nc3ccc(F)cc3)C2)n1 (stereo not given)
    5, -1, -4, 0.2, ., -7
C(=C1c2ccccc2-c2ccccc21)c1ccncc1
    -2, -22, -16, -0.3, ., -14
COc1ccc(Cl)cc1N(CC(=O)N(C)C)S(=O)(=O)c1ccc(C)c([N+](=O)[O-])c1
    ., 3, 1, 0.8, 2, 15
CCOc1ccc(CN2CCN(Cc3nc4c(s3)CCCC4)CC2CCO)cc1 (stereo not given)
    3, 2, -1, 0.0, 6, 12
CCS(=O)(=O)N1CCCC(C(=O)NCc2ccccc2Cl)C1 (stereo not given)
    7, 5, -24, -0.2, -5, 2
C[C@@H]1C[C@H](Nc2ccccc2)c2ccccc2N1C(=O)c1cccnc1
    -6, 10, -8, -0.3, -10, 20
C[C@H](CO)N1C[C@H](C)[C@@H](CN(C)C(=O)Nc2cccc(F)c2)Oc2ncc(Br)cc2C1=O
    4, -2, 3, 0.1, ., -7
Cc1nnc(NC(=O)CSc2nnc(Cc3cccn3C)n2-c2cccc(C(F)(F)F)c2)s1
    -22, -10, -3, -0.2, 12, 13
CCOc1ccccc1NC(=S)N1CCN(c2cccc(C)c2C)CC1
    -7, -8, -3, 0.7, 10, 15
Nc1ncnc(Nc2ccccn2)c1[N+](=O)[O-]
    13, -9, -7, -0.2, -8, 6
CCN(CC)C(=O)C1=C(C)N(Cc2ccc(OC)cc2)C(=O)C(CC(=O)NCC2CCCCC2)C1 (stereo not given)
    1, -2, -7, -0.6, ., -19
COc1ccc(-n2nc(C(=O)NCC(=O)NC(C)C)c3ccccc3c2=O)cc1Cl
    ., 3, -5, 1.9, -1, -3
Cc1nn(Cc2ccc(Cl)c(Cl)c2)c(C)c1NC(=O)c1cc(-c2ccc3c(c2)OCO3)on1
    1, 0, -2, -0.4, ?, 2
COc1cccc(NC(=O)CS(=O)(=O)c2cn(CC(=O)N3CCOCC3)c3ccccc23)c1
    2, 4, -5, -0.6, -6, -2
COc1ccc(C2=NOC(C(=O)Nc3cc(C)on3)C2)cc1 (stereo not given)
    4, -2, -7, -1.0, 6, 28
Cc1cccc(C(=O)Nc2c(C(=O)N(C)C)cnn2-c2ccccc2)c1
    -11, 16, -2, 0.3, 6, -1
Cc1cc(C)c(S(=O)(=O)Nc2ccccn2)c(C)c1
    ., 5, -15, -0.2, 4, -11
O=C(NCc1ccc2c(c1)OCO2)c1ccc(NS(=O)(=O)c2ccc3c(c2)OCCO3)cc1
    -3, 0, -9, 0.7, 10, -5
CC1(C(=O)NCc2cccc3ccccc23)CCN1Cc1ccc2ccccc2c1 (stereo not given)
    -1, -13, -12, 0.7, ., .
COc1cc(C2c3c(oc4ccccc4c3=O)C(=O)N2c2ccc(C)cn2)ccc1O (stereo not given)
    -4, -15, -7, 0.6, 0, 6
Cc1cccc(C)c1NC(=S)N(Cc1ccccc1)Cc1cccnc1
    -13, 6, -2, 1.1, -9, -15
CNC(=O)C(=O)NCC1OCCN1S(=O)(=O)c1ccc2c(c1)OCCO2 (stereo not given)
    3, 6, 2, -0.2, 1, 10
O=C1C=CC(=O)c2c(O)c(CO)c(CO)c(O)c21
    -2, -70*, ?, 1.4, ., 2

Some of the entries so far, with bars between the fields.
Compound | CtBP-E1A inh | Six1-Eya2 inh | D2 potentiator | TRPML1 agonist | TRPV1 PAM | TRPML1 inh
FC(F)(F)c1cc(-c2ccco2)nc(N2CCOCC2)n1 | 12 | 17 | -2 | 2.5 | 2 | -15
O=C(Cn1cnc2c(nnn2Cc2ccccc2F)c1=O)NCc1ccco1 | 1 | -2 | -10 | -0.6 | 1 | 33
COc1ccc(NC(=O)CN2CCN(C(=O)c3ccco3)CC2)c(OC)c1 | 6 | 5 | 4 | -0.3 | -23 | 0
CC/C(=N\NC(=O)Cc1ccc(Br)cc1)c1cccs1 | 3 | -1 | -13 | -0.4 | -7 | -10
O=C(c1cc2ccccc2o1)N1CCN(Cc2ccc3c(c2)OCO3)CC1 | -19 | -7 | -33 | 2.0 | -10 | 17
C#CCOCCOCCOCCNc1nc(N2CCN(C(=O)Cn3cc(CCCCN)nn3)CC2)nc(N2CCN(C(=O)[C@H]([C@@H](C)CC)n3cc(CCCCN)nn3)CC2)n1 | 6 | 1 | -36 | -1.0 | -8 | -1
NC(=O)C1CCN(C(=O)/C(=C/c2ccccc2)NC(=O)c2ccccc2)CC1 | 4 | 0 | 4 | 0.1 | 2 | 7
CCN1C(=O)CC(C(=O)NC)SC1=Nc1cc(Cl)c(O)c(Cl)c1 (stereo not given) | 0 | -2 | -17 | 2.1 | . | -6
Cc1ccc(/C=C/C(=O)OCC(=O)N(CC(C)C)c2c(N)n(Cc3ccccc3)c(=O)[nH]c2=O)o1 | 7 | 0 | 0 | 0.7 | -3 | -7
Cn1c(N2CCCC2)nc2c1c(=O)n(Cc1ccc(F)cc1)c(=O)n2C | -15 | -14 | -9 | 0.6 | -20 | 50
